Source: PubChem (several laboratories)
RanGTP-Impb inh – inhibitors of RanGTP-importin-beta interaction, primary screen, biochemical, FRET, CFP-Ran, YFP-importin-beta, homogeneous | cell-free CFP-Ran/YFP-importin-beta FRET ratio | inhibition, % (test concentration not listed) | hit rate 1.1% among 300,000;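 active = most replicates above 15%; inconclusive = exactly half above 15%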;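 note: 0% = DMSO wells and 100% = Ran loaded with GDP instead of GTP; wells of about 40 µL received 100 nL stock; the first replicate is given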
T cruzi repl – blocks replication of Trypanosoma cruzi | T. cruzi beta-gal in NIH3T3, luminescence, 90 h | inhibition, % (no concentration beside the values) | hit rate 1.4% among 300,000 | AID 1885;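 active = mean inhibition across valid replicates above about 55%, limit read from the data; inconclusive = mean below that limit but half or more replicates reach it; inactive = mean below it, under half of replicates reach it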;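 note: signal also drops with host cell toxicity which is not excluded here; 0% = plate median of DMSO wells and 100% = zero luminescence signal; higher percent means less beta-gal luminescence so fewer parasites; stock transfer was 50 nL into about 50 µL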
Vif TR-FRET – inhibitors of Vif binding to APOBEC3G peptide, primary screen, biochemical, TR-FRET, GST-Vif 1-94, biotin-A3G peptide, dose response retest (AID 1117319). TR-FRET GST-Vif / biotin-A3G peptide binding; higher % means a stronger effect; test concentration not given here; strong numbers were not always called active. inhibition, %; hits with a dose series show IC50 in µM. hit rate 0.57% among 260,000;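 active = above the screen mean plus three standard deviations and confirmed in dose response; inconclusive = results disagree or hit not tested in dose response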;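 note: Vif residues 1-94 fused to GST binding biotinylated APOBEC3G peptide 110-148; 0% = full assay without inhibitor and 100% = GST in place of GST-Vif; retest series ran down from 100 µM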
LANA-H2B inh – blocks KSHV LANA binding to histone H2A/H2B; Q9QR71; cell-free LANA-H2A/H2B peptide, fluorescence polarization; inhibition, % (test concentration not listed); hit rate 0.6% among 320,000; in the data active = inhibition mostly above about 10%, no sharp cut-off; inactive = mostly below about 6.7%;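 note: stock transfer was 7.5 nL into about 10 µL; 0% = median of vehicle wells and 100% = median of positive control wells; one replicate is shown; the record names a cut of 25% in any replicate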
Beta apoptosis – beta cell apoptosis inhibition; INS-1E cytokine-induced death, ATP luminescence, 48 h; percent of positive-control rescue, neutral wells zero; protection from apoptosis, % (test concentration not listed); hit rate 0.8% among 300,000; AID 435005;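 active = all replicates at 75% or more, or half of them and the mean; inconclusive = half reach 75% but not the mean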;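 note: 0% = cytokine-treated negative control wells and 100% = positive control rescue; higher means more ATP so stronger rescue from cytokine killing; wells of about 40 µL received 100 nL stock; the first replicate is given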
A1 inh – inhibitors of the anti-apoptotic protein A1, read as caspase activation; MEF A1-2A-BIM cells, Caspase-Glo 3/7 luminescence, 3 h; percent of clofoctol response, vehicle zero; caspase activation, % (concentration not given with the values); hit rate 0.066% among 330,000; AID 2462;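 active = over half of replicate activation scores above 10%, or exactly half above 10 with the replicate mean above 10; inconclusive = replicate mean below 10 yet half the replicates above 10; inactive = over half of replicates below 10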;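 note: wells of about 30 µL received 50 nL stock; many hits fall short of the cut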
AF4-AF9 inh – MLL-AF4/AF9 protein interaction inhibition; P42568; AlphaScreen, biotin-AF4 peptide binding to FLAG-AF9; inhibition, % at 10 µM; hit rate 0.47% among 350,000; AID 651704;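 active = every replicate reaching a set inhibition limit, whatever the replicate mean, cut at about 25% in these data; inconclusive = mean inhibition reaches that limit but some replicates miss it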;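 note: 0% = plate neutral control median and 100% = total signal loss; the record names both 10 and 1 µM as test concentration; the first replicate is given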
Target sequence (P42568 whole entry, looked up): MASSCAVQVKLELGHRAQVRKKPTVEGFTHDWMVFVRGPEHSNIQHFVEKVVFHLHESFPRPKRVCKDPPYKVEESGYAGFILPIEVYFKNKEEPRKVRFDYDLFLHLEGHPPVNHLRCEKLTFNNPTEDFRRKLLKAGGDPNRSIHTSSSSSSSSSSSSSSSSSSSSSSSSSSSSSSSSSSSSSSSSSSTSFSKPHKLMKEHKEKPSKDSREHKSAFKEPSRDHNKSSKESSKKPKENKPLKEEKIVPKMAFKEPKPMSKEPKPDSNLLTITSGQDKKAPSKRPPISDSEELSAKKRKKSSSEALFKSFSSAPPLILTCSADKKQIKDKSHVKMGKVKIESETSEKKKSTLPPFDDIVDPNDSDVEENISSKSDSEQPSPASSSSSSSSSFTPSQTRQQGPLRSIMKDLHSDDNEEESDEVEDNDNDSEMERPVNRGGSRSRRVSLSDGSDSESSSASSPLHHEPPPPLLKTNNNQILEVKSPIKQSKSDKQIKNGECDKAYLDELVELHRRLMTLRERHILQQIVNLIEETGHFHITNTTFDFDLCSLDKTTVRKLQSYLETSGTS
Calb FLC – affects C. albicans growth with fluconazole. C. albicans CaCi-2 (fluconazole-resistant clinical isolate) + fluconazole, Alamar Blue growth, 48 h. AID 1979. hit rate 0.57% among 300,000. growth inhibition, % (test concentration not listed);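 active = most replicates above 75%; inconclusive = exactly half above 75%; inactive = most below 75%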;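 note: all wells also contain fluconazole at 8 µg/ml as a sub-toxic cotreatment; 0% = median of DMSO wells and 100% = median of geldanamycin control wells; wells of about 8 µL received 7.5 nL stock; the first replicate is given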
Active calls of the source: *; ? = inconclusive; . = no result given; & = joins results of further samples; ! = not confirmed by another sample.

Second line of a record: RanGTP-Impb inh	T cruzi repl	Vif TR-FRET	LANA-H2B inh	Beta apoptosis	A1 inh	AF4-AF9 inh	Calb FLC
- CCC1(c2ccccc2)NC(=O)N(CC(=O)N2CC(=O)Nc3ccccc32)C1=O (stereo not given)
    .	.	-13%	-2.0	-3	0.4	0.6	.
- CC(=O)C1=C(O)C(=O)N(Cc2ccccc2)C1c1ccco1 (stereo not given)
    -3.3	19	8%	1.2	-2	2.4	.	-3
- O=C(Nc1cccc(-c2cn3c(n2)SCC3)c1)c1ccc2c(c1)OCO2
    -3.8	4	-10%	-3.8	2	-2.1	-0.9	1
- COc1ccc(S(=O)(=O)N2CCC(C(=O)NC3CCCC3)CC2)cc1C
    1.3	2	2%	-0.7	7	-0.6	-1.1	-4
- COc1ccc(/C=N/NC(=O)c2ccc(N3CCCC3=O)cc2)cc1
    4.7	1	.	2.8	1	1.0	2.8	-5
- O=C(CSc1nnc(NC(=O)c2cccc(F)c2)s1)NCc1ccco1
    0.7	-7	-6%	4.5	0	-2.6	-3.1	2
- CCOC(=O)c1cnc(Nc2ccc(OCC)cc2)nc1C
    1.1	7	0%	-1.1	3	-2.0	.	24
- C/C(=N/NC(=O)c1ccc(Br)s1)c1ccncc1
    -1.9	2	1%	-0.3	8	-0.3	-8.1	-6
- COc1ccc(O)c(C=NCC(C)N=Cc2cc(OC)ccc2O)c1 (stereo not given)
    0.7	-17	17%	2.0	-4	0.6	-0.3	13
- CC1(C)CC(=O)C2=C(C1)NC(Nc1nc3ccccc3o1)=NC21CCCC1
    2.2	-11	-1%	-2.2	-5	0.4	.	6
- Cc1ccc(S(=O)(=O)N[C@H](C(=O)N2CCC(C(=O)N[C@@H](CC(=O)O)C(=O)O)CC2)C(C)C)cc1
    1.4	18	.	2.7	-1	0.7	-6.4	-2
- Cc1nn(Cc2noc(C(=O)NC3CCC(C)CC3)n2)c(C)c1Br (stereo not given)
    3.9	-32	-7%	-5.4	20	-0.9	0.0	-7
- COc1ccc(CN=Cc2[nH]c3ccc(Br)c(Cl)c3c2O)cc1
    -0.9	55*	-6%	0.6	-19	0.7	.	-23
- NC(=Nc1ccc(Br)cc1)c1ccccc1
    4.4	8	-2%	0.4	-3	-1.4	0.9	-10
- Cc1ccc(S(=O)(=O)NC2(C(=O)O)CCCCC2)cc1
    2.3	-22	9%	-2.8	-2	0.0	.	-10
- Nn1cnnc1N/N=C/c1cc(Br)cc(Br)c1O
    -7.5	-26	9%	-0.7	45	0.3	.	-24
- C=CCSc1nc2nc(C)cc(C)n2n1
    -3.5	4	-1%	6.0	-2	-0.1	.	-1
- O=C1Cc2ccccc2C(=O)N1c1ccccc1
    ?	5	.	-1.3	-5	0.0	-2.6	-5
- COc1ccc(C2=NN(C(=O)c3ccccc3C(=O)O)C(c3ccccc3O)C2)cc1 (stereo not given)
    ?	-4	.	-2.5	-6	0.1	3.2	15
- Cc1ccc2[nH]c(=O)c(CN(CC3CCCO3)C(=O)c3cccs3)cc2c1 (stereo not given)
    -0.7	0	.	-0.8	-6	0.0	-3.5	5
- CC(c1ccccc1)N1C(=O)c2ccc(C(=O)Nc3ccc(Br)cc3C(=O)O)cc2C1=O (stereo not given)
    1.4	-2	.	-6.2	2	0.4	-0.3	-2
- O=C(NNS(=O)(=O)c1ccc([N+](=O)[O-])cc1)C1CCCCC1
    ?	-10	.	1.3	1	-0.5	-5.0	-4
- O=C(CN1CCN(c2cccc(Cl)c2)CC1)N1CCCC1
    -4.5	-6	-3%	-3.2	-3	-0.6	.	3
- CCCc1cc(C(=O)NNC(=S)NC(C)c2ccccc2)cs1 (stereo not given)
    3.6	-14	11%	1.9	-1	0.5	.	-23
- CC(=O)OC1CC(C)N(C(=O)c2ccccc2)c2ccc(C)cc21 (stereo not given)
    0.8	-13	7%	-4.3	0	1.3	.	-5
- CCOc1cccc(CN2CCCC(CCC(=O)NCc3ccccc3F)C2)c1O (stereo not given)
    0.9	56*	28%	-0.6	-2	2.4	-9.8	2
- O=C(NCc1cccnc1)NC1(C(F)(F)F)Oc2ccccc2O1
    -1.6	2	29%	-2.7	1	-0.7	.	-7
- CN(CCC1CCOCC1)C(=O)CC1C(=O)NCCN1C/C=C/c1ccccc1 (stereo not given)
    -0.6	-6	-3%	-1.0	-1	1.1	0.1	-4
- Cc1ccc2c(c1)S/C(=C/c1ccc[n+](C)c1)N2CCO
    0.5	57*	0%	-32	95*	0.1	0.3	13
- CSc1nc(N)c2c3c(sc2n1)CN(C)CC3
    ?	-3	0%	-4.1	0	0.2	3.5	-8

By substructure: the entries above with an NH in an aromatic ring.
Second line of a record: RanGTP-Impb inh	T cruzi repl	Vif TR-FRET	LANA-H2B inh	Beta apoptosis	A1 inh	AF4-AF9 inh	Calb FLC
- COc1ccc(CN=Cc2[nH]c3ccc(Br)c(Cl)c3c2O)cc1
    -0.9	55*	-6%	0.6	-19	0.7	.	-23
- Cc1ccc2[nH]c(=O)c(CN(CC3CCCO3)C(=O)c3cccs3)cc2c1 (stereo not given)
    -0.7	0	.	-0.8	-6	0.0	-3.5	5

Other compounds:
Second line of a record: RanGTP-Impb inh	T cruzi repl	Vif TR-FRET	LANA-H2B inh	Beta apoptosis	A1 inh	AF4-AF9 inh	Calb FLC
- Cc1cccc(OCC(=O)N2CCC(N3CCOCC3)CC2)c1
    -0.3	-14	-5%	-0.6	-5	0.6	.	9
- O=C(O)c1cccc2c(/C=N/Nc3ccccn3)c[nH]c12
    8.6	-9	-2%	-1.1	-6	-7.2	.	-15
- Cc1cc(N2C(=O)Cc3ccccc3C2=O)ccc1C(C)C
    -3.6	-3	4%	-0.8	-2	-0.4	5.8	-1
- CCOC(=O)C1=C(C)NC(=O)NC1C (stereo not given)
    1.6	-5	-3%	0.9	-1	0.6	.	-10
- O=C(Nc1nc2c(s1)CCCC2)c1cc(-c2ccc3c(c2)OCO3)nc2ccccc12
    0.3	39	14%	-4.5	-9	-1.1	.	3
- CC12CCC(=O)N1c1c(sc3nc(N4CCOCC4)c4c(c13)CCCC4)C(=O)N2 (stereo not given)
    -1.0	4	8%	-4.0	.	0.8	.	6
- CCN(CC)CCC(=O)NN
    -0.5	-1	2%	4.6	.	0.5	2.0	13
- Cc1ccc(Oc2nc3c(C)cccn3c(=O)c2/C=C(\C#N)C(N)=O)cc1
    12	8	-9%	2.7	-9	-2.0	-5.9	-5
- O=C(Nc1cccc(-c2nc3ccccc3[nH]2)c1)c1cccc(NC(=O)c2ccco2)c1
    5.1	?	1%	-2.1	56	-1.3	.	-1
- Cc1c(Cc2ccccc2)c(=O)oc2cc(OCC(=O)NCC3CCC(C(=O)O)CC3)ccc12 (stereo not given)
    ?	-2	.	-2.1	-1	1.4	3.0	0
- COc1ccc(NS(=O)(=O)c2cc(NC(=O)c3ccc(C)o3)ccc2N2CCCCC2)cc1
    -5.0	21	.	-0.1	11	-0.5	.	13
- Cc1cccc(OCC(=O)NC(=S)N2CCCc3ccccc32)c1
    -1.7	49	0%	-0.4	-3	-0.6	5.9	-3
- COCCn1cc(C(=O)N2CCN(C)CC2)c2c3ccccc3n(C)c2c1=O
    0.1	3	-2%	6.3	-9	-0.3	.	2
- CC(C)(C)NC(=O)/C(=C\c1ccccc1F)NC(=O)c1ccc([N+](=O)[O-])cc1
    0.9	2	2%	5.8	6	1.2	-10	2
- CCCCCOC(=O)C1=C(C)NC(=O)NC1c1ccc2c(c1)OCO2 (stereo not given)
    -4.4	2	.	-1.3	-1	0.7	2.9	0
- O=C(NC(=S)Nc1ccc2c(c1)OCCO2)c1ccc(F)cc1Cl
    1.6	-4	.	-4.2	8	0.2	-7.8	13
- O=S(=O)(c1ccc(F)cc1)N1CCN(CC(O)COCc2cccs2)CC1 (stereo not given)
    2.7	-2	-1%	5.9	2	0.1	.	-11
- CC1(C)CC(=O)C2=C(C1)OC(N)=C(C#N)C21C(=O)N2CCCc3cccc1c32 (stereo not given)
    0.2	10	-1%	-1.7	-4	-1.2	.	30
- CC(C)c1ccc(-c2c(C#N)c(N)nc3c2CCCCC3)cc1
    1.6	4	7%	-0.3	-4	-0.3	.	6
- Cc1cc(-c2cn3ccccc3n2)c(C)n1-c1ccccc1
    1.2	62*	?	10	10	-1.7	12	1
- O=c1c2ccccc2ncn1-c1ccc(Cl)cc1
    1.5&1.6	-4&-6	-1%	-12&0.3	-2&-6	-1.5&0.0	-5.0&-0.3	-4&-12
- CC(O)C(NS(=O)(=O)c1ccc(Cl)cc1)C(=O)OCC(=O)N1CCN(c2ccccc2)CC1 (stereo not given)
    -1.0	-6	.	4.1	7	-0.5	.	36
- Cc1ccc(-c2nc(N)n(C(=O)c3ccco3)n2)cc1
    4.2	-8	-17%	1.4	-4	0.2	0.3	4
- CCN(CC)S(=O)(=O)c1cc(NC(=O)Cc2n[nH]c(=O)c3ccccc23)ccc1C
    -2.1	-2	-11%	0.6	1	-0.7	8.9	-2
- Cc1cc(C)c2c(N)c(C(=O)N/N=C/c3cccs3)sc2n1
    10	1	1%	-2.9	-6	0.0	1.6	-3
- Cc1cccc(NC(=O)NCc2ccc3c(c2)OCO3)c1C
    6.9	3	13%	1.3	0	0.6	0.4	-24
- Cc1cc(C)n2ncc(/C(N)=N/OC(=O)Nc3ccc(Cl)cc3)c2n1
    2.1	-22	3%	-4.4	-2	0.5	-0.9	-17
- CCCCCCCCCCOC(=O)Cn1c(COc2ccccc2)[n+](C)c2ccccc21
    2.7	73*	.	0.8	129*	-1.2	?	41
- Cc1cccc(NC(=O)Nc2cccc(F)c2)n1
    5.2	-14	7%	-4.1	6	-1.7	.	-5
- CCCCc1nnc(NC(=O)CC(=O)Nc2ccccc2C(=O)O)s1
    1.6	-31	-5%	-3.0	-4	-13	.	-6
- CC(C)(C)OC(=O)CNC(=O)c1[nH]cnc1C(=O)Nc1ccc(CNC(=O)OC(C)(C)C)cc1
    -2.3	22	.	-2.4	7	?	4.2	17
- O=C(CCn1c(=O)oc2ccc(Cl)cc21)NCCCN1CCOCC1
    -0.6	-5	.	-5.2	.	0.3	-0.2	-6
- C=C[C@]1(C)C[C@@H](OC(=O)CSCCN(CC)CC)[C@]2(C)C(C)CC[C@]3(CCC(=O)[C@H]32)[C@@H](C)[C@@H]1O (stereo not given in full)
    -3.3&-0.5	59*!	.	-1.8&-4.1	-1&0	-0.3&0.0	0.3&-1.4	-20&-15
- CC(C)CN(CC(C)C)C(=S)NC1CCCCC1
    -2.4	-5	-2%	4.1	-2	0.8	-0.3	6

Structures from the list above with a tert-butyl group:
Second line of a record: RanGTP-Impb inh	T cruzi repl	Vif TR-FRET	LANA-H2B inh	Beta apoptosis	A1 inh	AF4-AF9 inh	Calb FLC
- CC(C)(C)NC(=O)/C(=C\c1ccccc1F)NC(=O)c1ccc([N+](=O)[O-])cc1
    0.9	2	2%	5.8	6	1.2	-10	2
- CC(C)(C)OC(=O)CNC(=O)c1[nH]cnc1C(=O)Nc1ccc(CNC(=O)OC(C)(C)C)cc1
    -2.3	22	.	-2.4	7	?	4.2	17
